# Assay outcomes as filed in PubChem BioAssay.
# Bead autofluor: compound fluorescence in toxin protease inhibitor counterscreen; compound autofluorescence counterscreen, microsphere flow cytometry; active compounds read high; fluorescence intensity (no concentration beside the values); hit rate 3.1% among 360,000;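 active means at least 3 SD above the mean of all compounds, about 16000 in these data; inconclusive means too few beads counted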;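 further: 100 nL of 1 mM stock went into each well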
# BJeLR lethal: kills HRASV12-expressing BJeLR cells | inhibition, % (concentration not given with the values) | BJeLR (HRASV12) viability, CellTiter-Glo ATP luminescence, 48 h; reference of the scale not given here | hit rate 0.17% among 300,000 | AID 1554;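 active means replicate mean above 50%; inconclusive means above 50% but judged a plate artefact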;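 further: 50 nL library stock added to about 25 µL; numbers are from one replicate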
# PrP UTR inh: suppresses PrP 5' UTR mRNA reporter expression. inhibition, % (test concentration not listed). hit rate 0.35% among 340,000. cell-based PrP 5' UTR mRNA reporter, plate reader. AID 488862;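 active means every replicate at 50% or more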;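 further: 0 = median of the neutral control wells; tested in H4 reporter cells; numbers are from one replicate; inactives centre near -14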
# RN4220 kill: kills Staphylococcus aureus RN4220; S. aureus RN4220 growth, OD600, 16 h; inhibition, % (concentration not given with the values); hit rate 0.33% among 330,000;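 active means z-score of -3 or lower and OD600 up to 0.18 on both plates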;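 further: plate controls were untreated cells for no effect and reference antibiotic for full effect; stock transfer was 100 nL into about 80 µL; one replicate is shown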
# Sa ugtP lethal: kills S. aureus RN4220 lacking UgtP; S. aureus RN4220 ugtP deletion, OD600 growth, 16 h; some inactives read as strong as hits; hit rate 0.54% among 330,000; AID 1259309; growth inhibition, % (concentration not given with the values);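 active means z-score under -3 and OD600 up to 0.15 on both plates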;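 further: plate controls were untreated wells for no effect and antibiotic for full effect; wells of about 80 µL received 100 nL stock; the first replicate is given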
# Mtb hypoxia inh: Mtb hypoxia fluorescent reporter inhibition. M. tuberculosis hypoxia-regulated fluorescent reporter, fluorescence. fluorescence inhibition, % (no concentration beside the values). hit rate 0.1% among 300,000. AID 1159583;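 active means 35 to 45% if threefold the growth effect, above 45% if 1.5-fold the growth effect; inactive means the rest, general growth blockers included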;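 further: wells of about 50 µL received 100 nL stock; 0% = vehicle wells and 100% = reference inhibitor wells; whole bacteria with a GFP reporter of the hypoxia response; strong numbers were not always called active; many hits fall short of the cut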
# Mtb hypoxia inh growth: further read-out of Mtb hypoxia inh, marked with its call; growth inhibition, %; measured here: M. tuberculosis growth (absorbance);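 0% = vehicle and 100% = reference antibiotic; read after six days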
# Starred values were filed as active, the others as inactive; ? = inconclusive; · = no result given; & = joins results of further samples. Random draw from the library (roughly 3.9% active in at least one column).
no.	mol	Bead autofluor	BJeLR lethal	PrP UTR inh	RN4220 kill	Sa ugtP lethal	Mtb hypoxia inh	Mtb hypoxia inh growth
1	Cc1cccc(N(O)C(=O)Nc2cccc(Cl)c2)c1	3626	-5	-38	3.0	-32	13	6
2	Cc1ccc(NC(=O)c2cc(S(=O)(=O)N3CCCC3)cn2C)cc1	6942	-9	-14	4.3	-2	0	-3
3	O=C(c1nc2ccccc2s1)N1CCSCC1	3921	0	-35	7.5	6	16	13
4	O=C(COc1coc(CN2CCN(c3ccccc3)CC2)cc1=O)N1CCc2ccccc21	4488	-8	-21	4.8	0	5	-2
5	COc1ccc(C(C(=O)NC(C)(C)C)N(CCc2ccccc2)C(=O)CCC(=O)Nc2cc(C)on2)cc1 (centres undefined)	3107	1	-9	3.8	5	-8	-10
6	COc1nonc1NCn1nc(C)cc1C	2150	-3	-17	-0.3	15	·	·
7	Cc1ccc(C)c(OCCC(=O)OCC(=O)Nc2cccc(S(=O)(=O)N3CCCC3)c2)c1	?	4	-2	4.4	-2	-5	11
8	OCCC1CN(Cc2ccc(Oc3ncccn3)cc2)CCN1Cc1ccc(F)c(F)c1 (centres undefined)	3413	-3	-22	5.0	6	1	6
9	C#Cc1ccc(C2C=C(C(=O)NC3CC3)OC(OCC)C2CCCO)cc1 (centres undefined)	·	·	·	-1.0&4.6	2&-11	2&2	14&5
10	Cc1cc(NC(=O)CSc2nnc(CNc3cccc(C(F)(F)F)c3)n2Cc2ccco2)no1	17703*	-3	-12	-5.1	19	6	9
11	COc1cccc(C(=O)Oc2cc(N)n(S(=O)(=O)c3ccc(C)cc3)n2)c1OC	4730	0	-9	-1.8	11	·	·
12	COc1cccc(-c2cc(C(=O)N3CCc4ccccc4C3)[nH]n2)c1	5328	7	-41	·	·	·	·
13	O=C(C1CCCO1)N1CCN(C(=S)Nc2cc(F)cc(F)c2)CC1 (centres undefined)	5683	7	-8	5.2	3	1	-4
14	O=C(Nc1cccnc1)OC1CCCCC1	4825	2	75*	5.3	0	13	-1
15	c1ccc2[nH]c(SCc3cn4cccnc4n3)nc2c1	2243	-4	-3	6.1	11	-9	-2
16	Cc1ccc(NC(=O)CN(C)C(=O)CSc2nc(C)cc(C)n2)cc1	?	3	-2	·	·	·	·
17	COc1ccc(CC(=O)Nc2ccccc2N2CCCC2)cc1	6446	-14	-23	0.8	-1	-4	1
18	C[C@@H]1CC[C@@]23COC(=O)C2=CCC[C@@H]3[C@@]1(C)CC/C(=C/CO)CO	5176	·	-27	6.7	-3	·	·
19	CC(=O)Nc1ccc(NC(=O)CSc2ccc3nnc(-c4ccccn4)n3n2)cc1	5197	-4	-13	1.9	-6	9	-1
20	c1ccc2c(c1)CCCn1nnnc1-2	?	13	-19	-0.7	-3	8	4

# Values in list order from the list:
# Mtb hypoxia inh, compounds 4 to 13, in order: 5, -8, ·, -5, 1, 2&2, 6, ·, ·, 1
# BJeLR lethal, compounds 4 to 13, in order: -8, 1, -3, 4, -3, ·, -3, 0, 7, 7
# Sa ugtP lethal, compounds 4 to 13, in order: 0, 5, 15, -2, 6, 2&-11, 19, 11, ·, 3

# Remaining list, next part
no.	mol	Bead autofluor	BJeLR lethal	PrP UTR inh	RN4220 kill	Sa ugtP lethal	Mtb hypoxia inh	Mtb hypoxia inh growth
21	Cc1ccc(NC(=O)CCCCCN2C(=O)[C@@H]3Cc4ccccc4CN3C2=O)cc1	5261	3	-15	1.7	3	10	0
22	CC1CCN(C(=O)c2ccc(S(=O)(=O)Cc3ccccc3F)c([N+](=O)[O-])c2)CC1	2587	16	-12	5.9	6	5	-1
23	CCCCSc1[nH]c(=O)c(C(=O)OCC)cc1C#N	23421*	0	-14	49	45	3	1
24	COc1ccc(OC)c(CN2CCN(CCCc3ccccc3)C(CCO)C2)c1 (centres undefined)	·	-8	-4	3.2	5	20	4
25	CC(C)NC(=O)NC(=O)COC(=O)/C=C/c1ccccc1[N+](=O)[O-]	4086	-7	-20	-2.0	-2	-7	-20
26	CCCCOc1ccc(C(=O)Nn2c(-c3cccs3)nc3ccccc3c2=O)cc1	2566	2	-9	2.3	-7	9	-9
27	COC(=O)c1sc(SC)c(S(=O)(=O)C(C)C)c1N	5860	-5	-3	1.4	-2	-6	2
28	COc1ccc(CC(=O)N/N=C(\C)c2cccs2)cc1	3524	-11	-6	·	·	·	·
29	CCN(CC)C(=O)CSC1c2ccccc2C(=O)N1c1ccccc1 (centres undefined)	23135*	4	-8	0.5	-3	5	8
30	COc1ccc2cc(C(=O)Nc3ccc(Cl)cc3)sc(=O)c2c1OC	2620	13	-35	1.6	-16	6	-2
31	CCOc1ccc(C(=O)CCC(=O)NCC(=O)Nc2c(C)cccc2C)cc1	3601	·	-27	-1.1	3	2	-1
32	CC=NNC(=O)CCCC(=O)NN=CC	·	·	·	2.8	0	4	1
33	O=C(CSc1nc(N2CCOCC2)nc(N2CCOCC2)n1)Nc1cccc(C(F)(F)F)c1	5382	9	-13	6.3	-2	10	5
34	O=C1[C@H]2C(c3ccccc3)=NN(c3ccccc3)[C@H]2C(=O)N1c1ccccc1	4639	0	18	0.8	3	14	14
35	COc1cccc(CNC(=O)CCNS(=O)(=O)c2ccc3[nH]c(=O)oc3c2)c1	4367	-3	-12	0.4	2	-3	5
36	C=CCN1C(=O)C2(NNc3ccccc3O2)c2ccccc21 (centres undefined)	2793	-10	-16	-15	-5	-3	-1
37	CCOC(=O)C1CCN(S(=O)(=O)c2ccc3c(c2)CC(C)N3C(=O)C2CC2)CC1 (centres undefined)	6065	-1	-10	-2.6	-6	-5	3
38	CC(C)Oc1ccccc1-c1cc(C(=O)NN=Cc2cccnc2)c2ccccc2n1	·	·	·	3.4	3	-2	-2
39	COc1ccc(C(=O)n2nc(-c3ccc(C)cc3)nc2N)cc1OC	4749	6	-16	-0.4	6	·	·
40	CCN(CC)CCN1C(=O)C(=O)/C(=C(/O)c2ccc(S(=O)(=O)N3CCOCC3)cc2)C1c1ccc(C(C)C)cc1 (centres undefined)	3853	1	-33	-0.9	7	6	10

# Further compounds follow.
no.	mol	Bead autofluor	BJeLR lethal	PrP UTR inh	RN4220 kill	Sa ugtP lethal	Mtb hypoxia inh	Mtb hypoxia inh growth
41	CCOc1ncccc1C(=O)OCC(=O)Nc1cccc(S(=O)(=O)N2CCCCCC2)c1	2834	·	-2	5.7	3	5	-3
42	O=C(c1ccc(F)cc1)N1CCCC(c2nc(-c3cccs3)no2)C1 (centres undefined)	4323	-4	10	5.7	9	17	12
43	Cc1cccc(NC(=S)N(CCCN2CCOCC2)Cc2ccccn2)c1	10840	-4	-18	3.3	-6	13	6
44	O=C(CN1CCOCC1)Nc1ncc(Br)cc1Br	4992	-2	-14	3.5	5	·	·
45	CCCC(C(=O)NCC1CCCO1)N(C(=O)CNS(=O)(=O)c1ccccc1)c1ccc(F)cc1 (centres undefined)	4370	-11	-9	2.8	4	3	-3
46	CSCCC(NS(=O)(=O)c1ccc(C)cc1C)C(=O)Nc1cccnc1 (centres undefined)	3690	·	-2	2.3	2	-2	2
47	COc1cccc(C2c3c(-c4ccccc4O)n[nH]c3C(=O)N2Cc2ccco2)c1 (centres undefined)	4680	-15	9	9.6	-16	11	10
48	C=CCNC(=O)C1CCN(S(=O)(=O)c2ccc3ccccc3c2)CC1	4482	1	-12	2.5	5	16	3
49	CCC(CC)c1nnc(NC(=O)COc2ccc3c(C)cc(=O)oc3c2)s1	9685	-14	·	0.3	0	2	-3
50	C=COCCNC(=O)C1CC(=O)N(c2ccc(C)cc2)C1 (centres undefined)	24393*	3	-20	4.2	4	1	1
51	O=C(C1COc2ccccc2O1)N1CCN(c2ccc([N+](=O)[O-])cc2)CC1 (centres undefined)	·	·	2	-0.3	2	7	7
52	COc1cc(C=NNC(=O)Cc2nnc(NC(=O)c3ccccc3)s2)ccc1O	·	·	·	0.9	6	-2	2
53	CCOC(=O)C(CC)n1cnc2c(nnn2-c2ccccc2)c1=O (centres undefined)	5782	-35	-8	6.5	-6	3	4
54	COCCNC(=S)Nc1ccc(N2CCOCC2)c(S(=O)(=O)Nc2ccccc2OC)c1	3527	·	-22	4.4	6	-12	-2
55	Cc1cc(C)c(S(=O)(=O)N2CCOC2CNC(=O)C(=O)NCCN2CCOCC2)c(C)c1 (centres undefined)	3979	10	2	1.9	1	-11	-2
56	O=C(NC(=S)NCC1CCCO1)c1ccc(Br)o1 (centres undefined)	2437	0	-29	3.6	6	-6	-2
57	Fc1ccc(Cn2c(SCc3ccc(F)c(C(F)(F)F)c3)nnc2C(F)(F)F)cc1	11135	-2	-10	6.1	-30	5	6
58	CC(C)c1ccccc1N1CC(C(=O)O)CC1=O (centres undefined)	21241*	-8	-30	6.3	7	8	13
59	O=C(NCc1nc2ccccc2[nH]1)C1=CC(c2coc3ccccc3c2=O)CC(OCCCCO)O1 (centres undefined)	·	·	·	3.9	6	18	6
60	O=C(NCCN1CCN(c2ccccc2F)CC1)c1cccn2c(=O)c3ccccc3nc12	9162	-6	-8	-0.9	-4	3	4

# (list continues)
no.	mol	Bead autofluor	BJeLR lethal	PrP UTR inh	RN4220 kill	Sa ugtP lethal	Mtb hypoxia inh	Mtb hypoxia inh growth
61	NC(=O)c1ccc(NC(=O)COC(=O)c2c3c(nc4ccccc24)/C(=C\c2ccc4c(c2)OCO4)CCC3)cc1	2224	-6	-1	-5.9	4	1	4
62	Cc1ccc(OCC(=O)NC(C)c2ccccc2)cc1 (centres undefined)	2917	-5	-7	3.8	16	2	5
63	COC(=O)Cc1c(C)c2ccc(OCC(=O)N3CCOCC3)cc2oc1=O	3524	-3	-4	10.0	-7	·	·
64	Cc1ccc2cc(C=NNc3ccc(C(=O)O)cc3)c(Cl)nc2c1	·	·	·	10	4	4	3
65	COc1ccc(C(=O)Nn2c(C)nc3ccccc3c2=O)c(OC)c1	4216	-2	-16	1.3	1	13	-1
66	COc1ccc(OC)c(S(=O)(=O)Nc2ccc(C(C)=O)cc2)c1	10417	8	-30	11	-1	12	7
67	Cc1ccc(NC(=O)C(=O)NCCN2CCN(Cc3ccc([N+](=O)[O-])cc3)CC2)cc1	7406	12	-21	-2.9	-1	-6	4
68	O=C(CSc1ccc(Cl)cc1)Nc1ccc(NC(=O)c2ccco2)cc1	12375	15	-28	4.3	-5	2	0
69	Cc1cc(C)c2c(c1)-c1c(ssc1=S)C(C)(C)N2C(=O)CSc1nncn1C	2308	-6	-23	5.2	4	·	·
70	O=c1[nH]c(O)c(C=Nc2cc(F)cc(F)c2)c(=O)[nH]1	3581	-2	-19	1.7	5	-2	2
71	CN(C)c1ccc(N2C(=O)CC(c3ccccc3)CC2=O)cc1	5385	-11	-22	5.3	5	-16	0
72	O=C(NC(=S)Nc1ccccc1Br)C1CCCC1	5723	-11	-55	4.8	48	13	13
73	COCc1c(C(=O)N2CCN(Cc3c(F)cccc3Cl)CC2)oc2ccccc12	3797	1	-18	-2.6	13	18	7
74	Cc1ccn(CCNC(=O)C2CCC(=O)N(Cc3ccc(Cl)cc3)C2)n1 (centres undefined)	4777	5	-13	-2.8	0	7	-1
75	Cc1ccc(S(=O)(=O)N2CCOCC2)cc1C(=O)Nc1ccc2c(c1)CCC2	2493	-2	-15	4.5	4	0	10
76	O=C(c1ccccc1F)c1cn(CC(=O)N2CCCC2)c2ccccc12	3774	3	-25	3.5	-3	13	13
77	Cc1cc(N2CCN(c3nc(-c4ccc([N+](=O)[O-])cc4)cs3)CC2)c2ccccc2n1	4650	11	-11	-13	-4	-3	6
78	CC(OC(=O)C1=COCCO1)C(=O)Nc1ccccc1C#N (centres undefined)	4257	-2	-23	1.8	1	3	5
79	O=C(NN=Cc1ccc(F)cc1)c1cc(OCC(F)(F)F)ccc1OCC(F)(F)F	·	·	·	-0.2	-5	-6	-4
80	COc1ccc(CCNC(=O)COC(=O)C2CC2C)cc1 (centres undefined)	3882	·	-12	1.4	3	5	11

# Next section:
no.	mol	Bead autofluor	BJeLR lethal	PrP UTR inh	RN4220 kill	Sa ugtP lethal	Mtb hypoxia inh	Mtb hypoxia inh growth
81	COc1ccc(CNC(=O)c2cc(-c3ccco3)on2)cc1	20809*	1	-18	1.3	4	5	2
82	COc1ccc(OCC(=O)OCC(=O)NCc2ccco2)cc1	2701	-7	-22	0.1	-8	·	·
83	C/C(CC(=O)Nc1cccc(C(F)(F)F)c1)=N\NC(=O)C(=O)NCC(C)C	4044	-7	-20	·	·	·	·
84	Cc1ccc(-c2c[n+](Cc3cccc(Cl)c3)c3n2CCC3)cc1	4872	8	-14	0.5	-6	-8	4
